From PubChem BioAssay
Beta cell apopt – blocks beta cell apoptosis | INS-1E cytokine-induced death, ATP luminescence, 48 h; percent of positive-control rescue, neutral wells zero | protection from apoptosis, % (test concentration not listed) | hit rate 0.8% among 300,000;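 active = all replicates at 75% or more, or half of them and the mean; inconclusive = half reach 75% but not the mean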;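 also: 0% = cytokine-treated negative control wells and 100% = positive control rescue; higher means more ATP so stronger rescue from cytokine killing; wells of about 40 µL received 100 nL stock; the first replicate is given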
T cruzi repl – T. cruzi replication inhibition | T. cruzi beta-gal in NIH3T3, luminescence, 90 h | hit rate 1.4% among 300,000 | inhibition, % (no concentration beside the values);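 active = mean inhibition across valid replicates above about 55%, limit read from the data; inconclusive = mean below that limit but half or more replicates reach it; inactive = mean below it, under half of replicates reach it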;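 also: signal also drops with host cell toxicity which is not excluded here; 0% = plate median of DMSO wells and 100% = zero luminescence signal; higher percent means less beta-gal luminescence so fewer parasites; stock transfer was 50 nL into about 50 µL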
A1 inh – inhibitors of the anti-apoptotic protein A1, read as caspase activation | MEF A1-2A-BIM cells, Caspase-Glo 3/7 luminescence, 3 h; percent of clofoctol response, vehicle zero | caspase activation, % (no concentration beside the values) | hit rate 0.066% among 330,000;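 active = over half of replicate activation scores above 10%, or exactly half above 10 with the replicate mean above 10; inconclusive = replicate mean below 10 yet half the replicates above 10; inactive = over half of replicates below 10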;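 also: wells of about 30 µL received 50 nL stock; many hits fall short of the cut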
Ecoli rRNA inh – selective bacterial rRNA inhibition in E. coli. GFP signal change (wild-type ribosome), % (no concentration beside the values). hit rate 1.6% among 350,000. AID 720706. E. coli WT GFP vs humanized-ribosome RFP mutants, fluorescence, 24 h; stronger effect = lower value; DMSO median 0, no signal -100;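 active = significant combined selectivity score with lowered wild-type GFP, culture density cut under 30%, mutant RFP and density less affected; inactive = any of these conditions unmet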; also: one replicate is shown; some compounds called inactive have numbers as strong as hits
Vif A3G – HIV-1 Vif–A3G interaction blockers – biochemical, TR-FRET, GST-Vif 1-94, biotin-A3G peptide, dose response retest, primary screen (AID 1117319); inhibition, %, or IC50 in µM where a hit was titrated; hit rate 0.57% among 260,000; TR-FRET GST-Vif / biotin-A3G peptide binding; higher % means a stronger effect; test concentration not given here; strong numbers were not always called active;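 active = above the screen mean plus three standard deviations and confirmed in dose response; inconclusive = results disagree or hit not tested in dose response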;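 also: Vif residues 1-94 fused to GST binding biotinylated APOBEC3G peptide 110-148; 0% = full assay without inhibitor and 100% = GST in place of GST-Vif; retest series ran down from 100 µM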
Calb FLC – C. albicans growth modulation with fluconazole. C. albicans CaCi-2 (fluconazole-resistant clinical isolate) + fluconazole, Alamar Blue growth, 48 h. growth inhibition, % (test concentration not listed). hit rate 0.57% among 300,000. AID 1979;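 active = most replicates above 75%; inconclusive = exactly half above 75%; inactive = most below 75%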;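 also: all wells also contain fluconazole at 8 µg/ml as a sub-toxic cotreatment; 0% = median of DMSO wells and 100% = median of geldanamycin control wells; wells of about 8 µL received 7.5 nL stock; the first replicate is given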
RanGTP-Imp inh – inhibitors of RanGTP-importin-beta interaction, primary screen, biochemical, FRET, CFP-Ran, YFP-importin-beta, homogeneous; inhibition, % (no concentration beside the values); hit rate 1.1% among 300,000; AID 2216; cell-free CFP-Ran/YFP-importin-beta FRET ratio;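 active = most replicates above 15%; inconclusive = exactly half above 15%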;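 also: 0% = DMSO wells and 100% = Ran loaded with GDP instead of GTP; wells of about 40 µL received 100 nL stock; the first replicate is given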
AF4-AF9 inh – MLL-AF4/AF9 protein interaction inhibition; inhibition, % at 10 µM; hit rate 0.47% among 350,000; AlphaScreen, biotin-AF4 peptide binding to FLAG-AF9; P42568;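 active = every replicate reaching a set inhibition limit, whatever the replicate mean, cut at about 25% in these data; inconclusive = mean inhibition reaches that limit but some replicates miss it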;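 also: 0% = plate neutral control median and 100% = total signal loss; the record names both 10 and 1 µM as test concentration; the first replicate is given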
Target sequence (P42568 whole entry, looked up): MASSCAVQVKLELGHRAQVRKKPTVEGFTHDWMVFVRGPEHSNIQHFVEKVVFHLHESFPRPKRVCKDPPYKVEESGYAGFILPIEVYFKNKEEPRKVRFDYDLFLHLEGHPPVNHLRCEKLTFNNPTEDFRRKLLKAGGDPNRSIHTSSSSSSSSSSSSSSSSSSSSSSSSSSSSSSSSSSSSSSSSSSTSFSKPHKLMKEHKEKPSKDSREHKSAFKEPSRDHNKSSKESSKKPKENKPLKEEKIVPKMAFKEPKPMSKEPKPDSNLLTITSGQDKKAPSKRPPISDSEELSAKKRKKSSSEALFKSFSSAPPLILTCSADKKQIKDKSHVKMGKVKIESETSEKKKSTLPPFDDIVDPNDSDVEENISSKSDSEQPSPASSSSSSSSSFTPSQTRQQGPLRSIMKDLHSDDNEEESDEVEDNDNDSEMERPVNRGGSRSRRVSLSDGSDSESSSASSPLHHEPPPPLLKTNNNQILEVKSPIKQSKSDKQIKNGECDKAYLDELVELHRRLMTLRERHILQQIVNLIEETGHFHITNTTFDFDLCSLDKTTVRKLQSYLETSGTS
Ecoli rRNA inh OD600 – further read-out of Ecoli rRNA inh, marked with its call; OD600 change, %; measured here: OD600 growth;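 optical density of the mix in the first replicate; 0 = DMSO median and -100 = no signal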
Ecoli rRNA inh RFP – second read-out of Ecoli rRNA inh, no call of its own (marks repeat the call); RFP signal change, %; measured here: RFP humanized mutant strains;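 first replicate; 0 = DMSO median and -100 = no signal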
* hit, by the source's call; ? = inconclusive; / = not tested or not shown; & = joins results of further samples. An excerpt (hit frequency here may not be typical).

The line under a structure holds: RanGTP-Imp inh	Vif A3G	Beta cell apopt	A1 inh	Ecoli rRNA inh OD600	Ecoli rRNA inh RFP	AF4-AF9 inh	T cruzi repl	Ecoli rRNA inh	Calb FLC
[1] CCc1cc2ccc(C)cc2nc1SCC(=O)Nc1c[nH]c(=O)[nH]c1=O
→ -0.7	/	11	0.2	19	0.8	-3.2	-13	40	23
[2] COCCNC(=O)c1cc(Sc2nnc(C)s2)nc2ccccc12
→ -1.6	-4%	-5	0.4	/	/	/	-1	/	-6
[3] Cn1c(NCc2cccs2)nc2ccccc21
→ 5.5	3%	2	-6.1	/	/	/	7	/	-4
[4] Cc1ccc(S(=O)(=O)N(C)C)cc1NC(=O)c1cncc(Br)c1
→ 0.4	19%	-1	0.2	12	-12	0.7	-12	14	-3
[5] O=C1CSc2ccc(S(=O)(=O)CCC(=O)NC3CCCCC3)cc2N1
→ 1.8	1%	-1	0.5	-1	0.2	1.2	7	0	-1
[6] COc1ccc(/C(O)=C2/C(=O)C(=O)N(Cc3cccnc3)C2c2ccncc2)cc1F (stereo not given)
→ 4.2	6%	-9	1.9	/	/	/	1	/	1
[7] CN(C)c1nc(N(C)C)n(C(=O)c2ccc(F)cc2)n1
→ 4.2	9%	3	-1.0	5	-2.5	-2.4	-9	-1	-18
[8] CC(OC(=O)c1ccccc1NCCO)C(=O)NC1CCCCC1C (stereo not given)
→ 1.4	/	0	0.5	6	-2.6	-22	1	3	-9
[9] Brc1csc(/C=N/Nc2nc3ccccc3s2)c1
→ 23	/	16	0.2	/	/	/	9	/	11
[10] CCN(CC)P(=O)(c1ccccc1)c1c(C)nc2ccccn12 (stereo not given)
→ 0.0	/	-6	0.1	4	-0.8	0.4	-8	1	-2
[11] CCC1=NN2C(=N)/C(=C\c3cccn3-c3ccc(Cl)cc3)C(=O)N=C2S1
→ /	1%	0	-0.1	-1	1.9	-1.2	2	-2	?
[12] CCC(C)(C)n1nnnc1C(c1ccccn1)N1CCOCC1 (stereo not given)
→ -1.0	-2%	-6	-0.9	/	/	/	-23	/	-19
[13] CC(C)CC(CO)N1CCN(C(=O)c2ccc(C(C)(C)C)cc2)CCC1=O (stereo not given)
→ /	-6%	2	1.1	15	-8.2	-0.9	/	5	/
[14] COc1ccccc1Nc1nc(-c2cccnc2)cs1
→ 2.9	-5%	-9	-2.7	-17	-14	7.1	-2	-15	-5
[15] Cc1cccc(-c2nc3ccccc3c(=O)[nH]2)c1
→ 1.1	-24%	0	-3.5	12	-1.6	-0.2	-12	12	-4
[16] O=C(CCC(=O)OCCCC(F)(F)C(F)(F)F)Nc1ccc(Cl)cc1Cl
→ 3.7	2%	-3	0.2	/	/	/	-8	/	25
[17] Cc1ccc(CNC(=O)CN2C(=O)COc3ccc(C)cc32)cc1
→ -2.5	0%	-3	0.5	/	/	/	-2	/	-25
[18] O=C(c1ccc(-c2ccccc2Cl)s1)N1CCOCC1
→ -0.3	/	-2	-1.1	-17	0.1	/	10	-18	-24
[19] CSc1ccccc1C(=O)C1CCCN(Cc2cnn(-c3ccccc3)c2)C1 (stereo not given)
→ ?	-4%	0	0.6	/	/	11	74*	/	-13
[20] COc1ccccc1CNCC(O)(c1ccc(Cl)cc1)c1ccc(Cl)cc1
→ -5.3	-1%	19	-1.4	/	/	/	37	/	-16
[21] COc1ccc(N(C(=O)c2ccco2)C(C(=O)NC2CCCC2)c2ccc(C)cc2)c(OC)c1 (stereo not given)
→ -1.9	5%	/	/	1	-0.4	2.2	9	-1	8
[22] O=C(CSc1nncn1-c1cccnc1)Nc1ccccc1[N+](=O)[O-]
→ 0.3	/	-1	0.8	7	-1.7	0.6	12	3	-31
[23] CCCCCC1=CCC/C1=N\NC(=O)c1ccc2c(c1)OCO2
→ -0.7	-4%	-1	0.2	1	1.3	1.1	-6	-1	-9
[24] COc1ccc(N=Nc2c(-c3ccc(OC)cc3)[nH]oc2=O)cc1
→ -10	/	1	-0.1	9	7.0	-0.1	1	11	-6
[25] CC1=NCCN1S(=O)(=O)c1cc([N+](=O)[O-])ccc1Cl
→ 2.2	/	-2	-1.4	16	-12	-0.8	3	13	13
[26] Cc1ccccc1OCC(=O)OCC(=O)Nc1cc(S(=O)(=O)N2CCCCC2)ccc1Cl
→ 0.9	-7%	-5	0.7	3	4.1	2.9	-5	3	4
[27] O=C(CSc1nccn1Cc1ccccc1)Nc1ccccc1
→ 6.0	6%	-8	0.2	-7	-0.8	2.4	3	9	-1
[28] COc1ccc(C(=O)c2ccc(Br)cc2)c2ccccc12
→ 1.8	/	2	-0.1	8	-5.7	-6.9	0	7	-2
[29] COc1ccc(S(=O)(=O)Cc2ccc(C(=O)N3CCN(c4ccccn4)CC3)o2)cc1
→ 0.8	2%	/	0.0	/	/	/	-3	/	2
[30] Cc1cc2c(=O)n(CC(=O)N3CCN(c4ccc(F)cc4)CC3)cnc2s1
→ -3.8	-6%&2%	-2	2.6	/	/	/	-1	/	-5
[31] CCn1c(NC(=O)c2cccc(Cn3cc(Cl)cn3)c2)nc2ccccc21
→ 1.9	-4%	/	0.6	-1	0.1	0.2	47	3	9
[32] Cn1c(C(=O)N2CCCC(C(=O)NCCCSC3CCCCC3)C2)cc2sccc21 (stereo not given)
→ 0.2	2%	17	0.1	/	/	/	-29	/	-40
[33] COC(=O)Cc1cc(=O)oc2c(C)c(O)ccc12
→ 60*	?	5	0.4	/	/	/	-16	/	?
[34] COc1ccc(-c2cc(C(=O)NC(Cc3c[nH]c4ccccc34)C(=O)O)c(C)o2)cc1OC (stereo not given)
→ 0.9	17%	/	1.0	-1	-0.8	2.8	-5	-2	-7
[35] O=C(CN1CCN(C2CCCCC2)CC1)Nc1cccc2ccccc12
→ 2.9	-5%	-1	0.6	2	-0.4	-0.4	4	18	-8
[36] CSc1nc2nc3c(cc2c(=O)n1-c1ccccc1C)CCCC3
→ -0.8	-7%	40	0.2	1.1*	3.2*	-5.8	-1	-30*	9
[37] O=C(O)/C(=C\c1ccc(Br)cc1)c1ccc(S(=O)(=O)N2CCCCC2)s1
→ -1.0	/	-5	0.9	-41	-8.7	-0.8	-14	-23	7
[38] Cc1nn(C)c(C)c1S(=O)(=O)Nc1ccc2c(c1)OCO2
→ -1.0	?	-12	0.1	/	/	/	0	/	-2
[39] COc1cc(CNCc2ccccn2)ccc1OCc1c(Cl)cccc1Cl
→ 6.5	5%	53	-0.2	-24*	2.6*	?	14	-46*	-39
[40] CCNc1nc(NCC)n2c(SCC(=O)Nc3c(C)cccc3C)nnc2n1
→ -0.6	6%	-16	0.2	4	0.2	-2.1	4	4	0
[41] Cn1nc(C(=O)OCC(=O)Nc2ccc(F)cc2Cl)c2ccccc2c1=O
→ /	-15%	2	-0.9	15	4.1	-5.8	/	17	/
[42] O=C(NC1CCCCC1)C1CCC(CNS(=O)(=O)c2cccc3nsnc23)CC1 (stereo not given)
→ 7.9	2%	3	0.2	12	-1.0	4.0	-5	8	-4
[43] COC(=O)COn1c(SCC(=O)OC)nc2ccccc2c1=O
→ 10	6%	-2	-0.4	/	/	/	-12	/	-6
[44] COc1ccc2c(c1)nc(SCC(=O)C(C)(C)C)n2C
→ 6.1	9%	-2	0.1	/	/	/	-19	/	12
[45] Cc1cccc(NC(=O)CSc2nc3nc(C)cc(C)c3c(=O)[nH]2)c1
→ -2.7	-3%	-8	0.9	/	/	/	-13	/	-13
[46] O=C1/C(=C/c2cccc([N+](=O)[O-])c2)CSc2ccc(Cl)cc21
→ 3.6	-2%	0	-0.2	11	-0.3	-1.0	13	7	3
[47] O=C(OCc1csc(-c2ccccc2)n1)c1ccccc1O
→ -0.6	-4%	-5	-7.8	-3	-7.5	-1.9	1	-12	-7
[48] Fc1ccccc1COc1ccc2ccccc2c1CNc1nn[nH]n1
→ 4.4	-22%	2	0.4	17	2.1	-3.8	19	7	7
[49] COc1ccc(CCN(C)C(=O)c2ccc(S(=O)(=O)Nc3ccccc3C)cc2)cc1OC
→ 2.7	/	-1	-1.0	-6	-0.4	0.1	0	-5	-11
[50] COc1ccc(CNC(=O)CSc2cccc3cccnc23)cc1
→ 2.3	/	/	0.4	-10	1.7	-2.4	3	-11	2

Next entries follow.
The line under a structure holds: RanGTP-Imp inh	Vif A3G	Beta cell apopt	A1 inh	Ecoli rRNA inh OD600	Ecoli rRNA inh RFP	AF4-AF9 inh	T cruzi repl	Ecoli rRNA inh	Calb FLC
[51] COc1ccc2[nH]c(=O)c(CN(CC3CCCO3)S(=O)(=O)c3ccccc3F)cc2c1 (stereo not given)
→ 0.2	9%	3	-0.2	-3	1.4	-4.9	-2	-6	-4
[52] COc1ccc(NC(=O)Cn2nnc(-c3ccccc3NS(=O)(=O)c3ccccc3)n2)cc1
→ 4.9	14%	2	-0.4	/	/	/	-27	/	-3
[53] Cc1occc1C(=O)N1CCN(S(=O)(=O)c2ccc(F)cc2)CC1
→ /	-3%	-3	-0.5	/	/	-0.4	/	/	/
[54] OCCNCC12CC3CC(CC(C3)C1)C2
→ -1.2	14%	1	0.4	4	1.8	4.1	-12	11	-17
[55] CC(C)c1ccc(O)c(N)c1
→ 1.3	24%	0	-0.1	/	/	/	-7	/	-2
[56] Cc1nn(S(=O)(=O)c2ccc(Br)cc2)c(C)c1S(=O)(=O)N1CCOCC1
→ 0.5	/	-9	-0.9	12	-0.9	-3.5	-7	5	-39
[57] COc1ccc(C(=O)NC(Oc2ccccc2)C(Cl)(Cl)Cl)cc1 (stereo not given)
→ 2.8	0%	3	-0.4	/	/	/	-12	/	-6
[58] CCOC(=O)CC(=O)CSc1nc(-c2cccnc2)ccc1C#N
→ -26	3%	10	0.1	20	14	-15	-14	11	3
[59] Cc1ccc(NC(=O)Nc2ccc(Cl)cc2)c(Br)c1
→ 3.5	4%	21	-0.6	/	/	/	13	/	2
[60] Cc1ccc(CNC(=O)c2cc(-c3ccccc3)nn2CC2CC(c3cccc([N+](=O)[O-])c3)=NO2)cc1 (stereo not given)
→ 0.6	/	-1	2.3	0	-5.2	/	28	5	11
